# Screens from PubChem.
# TRPML1 blocker = inhibitors of human TRPML1 channel; 390,000 tested, 0.02% active; TRPML1-inducible cells, Ca2+ dye fluorescence, FDSS; hits give low values; inhibition of EC80 agonist-evoked calcium signal; activity change, negative = inhibition, % (no concentration beside the values); in the data active means activity change below about -50%; inconclusive means about -30% to -50%; inactive means above about -30%;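 further: stimulus is agonist 54-4 at its EC80 concentration; on the % scale 0 is the no-effect control and ±100 the full control effect; compound concentration not given in the record; the text of the record puts the active cut at -80%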
#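 TRPML1-DL cells, Tet-induced overnight (~16 h, 37 °C) at 1,500 cells/well, were loaded with Ca8 no-wash dye plus quencher for 45-90 min at room temperature. Compounds were pinned during FDSS kinetic reading; agonist 54-4 at EC80 (4 uM final) then added.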
# ClpP mod = qHTS Assay for Activators of ClpP | ATP-dependent Clp protease proteolytic subunit (Bacillus subtilis (strain 168)), P80244 | 340,000 tested, 1.9% active | Potency, µM (titrated, usually from 57.5 µM), inactives show at the top dose activity change, negative = active | AID 651965, 2013 | purified B. subtilis ClpP, FRET peptide cleavage, 20 min; active = well fitted falling curve with a large enough effect; inconclusive = small, poorly fitted or top-dose-only effect; inactive = no such curve, though single readings can be large or run the other way; further: potency means the concentration at half of the fitted maximal effect; the source files actives as falling curves though it sought activators and does not explain the sign; nearly all actives have a fitted effect of over 65% in size; many hits overshoot -100%
# Target sequence (P80244 whole entry, looked up): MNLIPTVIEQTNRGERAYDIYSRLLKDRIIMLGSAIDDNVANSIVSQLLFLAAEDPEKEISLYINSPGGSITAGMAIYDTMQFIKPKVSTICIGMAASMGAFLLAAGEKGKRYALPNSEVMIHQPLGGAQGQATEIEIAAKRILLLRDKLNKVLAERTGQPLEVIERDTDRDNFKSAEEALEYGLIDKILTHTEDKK
#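 FRET quenching reversal measured ClpP activation: 10 microg/mL B. subtilis ClpP at pH 8 with the FRET-FV decapeptide, read at 430 nm after 320 nm excitation. The 20-min minus 0-min signal was scaled between DMSO/no-enzyme wells and ADEP (5.8 microM final).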
# Sfp PPTase inh = Sfp phosphopantetheinyl transferase inhibition. Q9F4F7. Biochemical Sfp PPTase activity, qHTS. Potency, µM, inactives show max response, negative = inhibition, most hits filed as inhibitors. 310,000 tested, 3.5% active. AID 1490; active means well fitted inhibition curve with a large enough effect; inconclusive means small, poorly fitted or top-dose-only effect, or another doubt; inactive means no such curve, though single readings can be large or run the other way;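 further: the enzyme is Sfp with the accession as filed and its product quenches rhodamine fluorescence; potency means the concentration at half of the fitted maximal effect; 0% = enzyme reaction without inhibitor and -100% = no enzyme wells; top concentration of the series not given in the record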
#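 Reaction rates are the 30-min fluorescence difference (ex 525, em 598 nm) in wells containing 15 nM Sfp, 5 uM rhodamine-CoA and 12.5 uM BHQ-2-YbbR at pH 7.6 with 10 mM MgCl2.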
# Menin-MLL FL inh = displaces fluorescein MLL peptide from human menin; 290,000 tested, under 10 active; Fluorescence polarization, fluorescein-MLL peptide displacement from menin; AID 1766; FP activity change, % at 61.4 µM; inconclusive = falling polarisation curve, or a change in total fluorescence; inactive = total fluorescence flat and polarisation flat or rising; no compound was filed as active; the % refers to the polarisation; negative = inhibition;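 further: % of control where 0% means no effect; inhibitors lower the polarisation; unlabelled MLL peptide was the positive control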
# gsp agonist = agonists of gsp mutant (McCune-Albright syndrome); Potency, µM (series often up to 76.9 µM), for the others: top-dose activation (cAMP increase), usual class: activators; gsp mutant cells, cAMP HTRF, 30 min; control for the full effect not named in the record; 340,000 tested, 0.13% active; AID 624287; active = well fitted activation curve with a large enough effect; inconclusive = small, poorly fitted or top-dose-only effect, or another doubt; inactive = no such curve, though single readings can be large or run the other way; cell line not stated here;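 further: phosphodiesterase inhibitor Ro 20-1724 added with compounds to block cAMP breakdown; potency means the concentration at half of the fitted maximal effect; nearly all actives have a fitted effect of over 60% in size; about a fifth of the inactives were tested at one dose only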
#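 Cells stably selected in G418 were plated at 2000/well, grown 16-24 hr, then given compounds in DMSO with the PDE inhibitor […] (300 uM solution added) for 30 min at 37C; cAMP was read by HTRF.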
# gsp antagonist = antagonizes gsp, the McCune-Albright syndrome mutation | Potency, µM (titrated, usually from 76.9 µM), inactives show at the highest dose activity change, negative = inhibition, usual class: inhibitors | gsp-mutant cells, cAMP HTRF, 30 min; control for the full effect not named in the record | 340,000 tested, 0.4% active; active = falling curve of any shape with a large fitted effect; inconclusive = falling curve, mostly with a smaller effect; inactive = flat or rising curve; cell line not stated here;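 further: intracellular cAMP measured with PDE inhibitor Ro 20-1724 present during compound exposure; potency means the concentration at half of the fitted maximal effect; on the % scale 0 is the no-effect control and ±100 the full control effect; nearly all actives have a fitted effect of over 65% in size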
#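 G418-selected cells were plated in DMEM/10% FBS for 16-24 h at 37C, then treated with compounds plus the PDE inhibitor […] (300 uM solution added) for 30 min at 37C. Intracellular cAMP was measured by HTRF after 30 min lysis at room temperature.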
# TRPV1 potentiator = enhances activation of the human vanilloid receptor TRPV1; potentiation, % at 8.33 µM; TRPV1-expressing cells, Fluo-8 calcium influx, capsaicin EC20 potentiation; host cell line not named in the record; control for the full effect not named in the record; 320,000 tested, 0.02% active; Q8NER1; active means potentiation above 80%; inconclusive means 30% to 80%; inactive means below 30%; further: 0% is about no effect
# Target sequence (Q8NER1 whole entry, looked up): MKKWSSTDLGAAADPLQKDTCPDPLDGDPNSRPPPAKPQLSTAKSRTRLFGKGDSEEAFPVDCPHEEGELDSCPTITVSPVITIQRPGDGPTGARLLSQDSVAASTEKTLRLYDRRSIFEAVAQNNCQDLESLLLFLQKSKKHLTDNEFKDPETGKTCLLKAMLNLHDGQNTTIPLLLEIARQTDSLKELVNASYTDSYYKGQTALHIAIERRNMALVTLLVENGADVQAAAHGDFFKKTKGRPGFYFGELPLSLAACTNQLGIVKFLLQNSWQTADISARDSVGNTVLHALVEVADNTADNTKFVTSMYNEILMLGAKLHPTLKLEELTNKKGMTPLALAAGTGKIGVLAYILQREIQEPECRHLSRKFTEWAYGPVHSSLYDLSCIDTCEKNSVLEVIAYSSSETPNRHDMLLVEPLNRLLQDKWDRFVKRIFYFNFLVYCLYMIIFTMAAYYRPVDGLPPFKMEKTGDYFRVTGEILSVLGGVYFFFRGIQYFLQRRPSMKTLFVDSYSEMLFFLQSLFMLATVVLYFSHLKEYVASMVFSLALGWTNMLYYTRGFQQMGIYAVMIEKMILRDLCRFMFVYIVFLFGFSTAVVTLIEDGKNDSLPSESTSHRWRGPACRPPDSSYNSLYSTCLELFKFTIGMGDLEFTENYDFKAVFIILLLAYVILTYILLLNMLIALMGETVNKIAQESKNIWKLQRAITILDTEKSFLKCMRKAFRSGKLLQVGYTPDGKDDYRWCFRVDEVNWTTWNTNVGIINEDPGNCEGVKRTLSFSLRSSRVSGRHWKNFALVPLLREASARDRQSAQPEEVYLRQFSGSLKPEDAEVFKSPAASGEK
#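 TRPV1-expressing cells were cultured overnight at 35.5C and loaded with Fluo-8 calcium dye for 40 to 90 min at room temperature. After a 10 s baseline, compound was added and calcium influx was read kinetically for 3 min (ex 480/em 520 nm).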
# * marks the source's active call; other numbers are inactive results; ? = inconclusive; / = no result given; & = joins results of further samples; [ ] = dose if it differs, or a comment.
Compound	gsp agonist	TRPML1 blocker	ClpP mod	gsp antagonist	Sfp PPTase inh	TRPV1 potentiator	Menin-MLL FL inh
CCOC(=O)c1nc(Nc2ccc(N3CCOCC3)cc2)c2ccccc2n1	-11%[15.4 µM]	3	0.4%	-18%	8%	4	3.9
COc1ccccc1NC(=O)C(C)OC(=O)CCSc1ccc(F)cc1 (stereo not given)	13%	42	-1.8%	4%	/	1	/
CCn1cc(C(=O)N2CCN(c3ccc(OC)cc3)CC2)c(=O)c2cc(S(=O)(=O)N3CCOCC3)ccc21	30%	-2&4	-1.6%&-1.0%	-10%	6%	0	0.9
CCN1C(=O)[C@H]2[C@@H](c3ccc(Cl)cc3)N3C(=O)CN(Cc4ccccc4)C(=O)[C@@]3(C)[C@H]2C1=O	26%	-11	-2.7%	10%	3%	-3	1.6
CCn1c2ccccc2c2cc(/C=N/NC(=O)c3ccccc3C)ccc21	1%	42	13µM*	-3%	12%	12	-1.9
CC1=CC(=O)C2(C)C(C)=C(C)C12C (stereo not given)	-12%	-2	-0.3%	/	/	/	/
NC(=O)C1CCN(C(=O)C(=O)c2cn(CC(=O)N3CCCC3)c3ccccc23)CC1	9%	28	0.8%	-10%	9%	-4	/
Nc1nc(=O)n(C2CCCCO2)cc1Br (stereo not given)	5%	13	-3.0%	-2%	/	/	/
NC(=O)c1ccc(NC(=O)COC(=O)c2ccc([N+](=O)[O-])cc2)cc1	-15%	8	2.0%	4%	-6%	4	0.7
COc1ccccc1Nc1nc(C)c(C(=O)Nc2ccccc2)s1	?	17	/	?	3%	-8	0.0
COc1ccc(N(CC(=O)NCc2ccccc2OC)S(=O)(=O)c2ccccc2[N+](=O)[O-])c(OC)c1	0%	7	/	-13%	3%	5	-0.6
CCOc1cc(C2NN=C(c3ccccc3)S2)ccc1OCc1ccc(F)cc1 (stereo not given)	17%	-5	14µM*	-3%	?	-42	3.8
CCCCN(C)CCNC(=O)C1CCCN(S(=O)(=O)c2cccc3nsnc23)C1 (stereo not given)	-1%	-5&-19	0.6%&-2.2%	8%	11%	?	-1.7
O=C(O)c1cc(S(=O)(=O)NCCCN2CCCC2=O)ccc1Cl	-13%	4	1.5%	12%	/	/	/
Cc1ccc(/C=C/C(=O)Nc2ccc(S(=O)(=O)Nc3cc(C)nc(C)n3)cc2)cc1	-23%	-1	/	?	7%	-22	1.0
COc1ccc(C(C)=O)cc1COC(=O)c1cnc(Cl)c(Cl)c1	7%[15.4 µM]	0	/	-54%	14%	-14	2.2
Cc1ccc(C)c(NS(=O)(=O)c2cc(C(=O)N3CCc4ccccc4C3)ccc2Cl)c1	8%	19	0.7%	-33%	13%	-23	0.3
COc1cc(C=O)ccc1Oc1cnccn1	-9%[15.4 µM]	-1	/	-5%	7%	9	4.1
Cc1ccc(Nc2nnc(SCn3nnc4ccccc4c3=O)s2)cc1	-5%	13	-7.8%	-14%	-9%	-3	2.1
Clc1cccc(N=NN2CCOCC2)c1Cl	5%	7	0.0%	-1%	11%	-5	0.6
Cc1ccccc1CSc1nnc2ccc(-c3ccncc3)nn12	-4%	/	-0.9%	-12%	7%	?	-1.7
CCOC(=O)Cn1c(=O)c2c(nc(N3CCCCC3)n2Cc2ccccc2)n(C)c1=O	-3%	-1	-11%	?	-2%	-8	2.6
O=C(NCc1ccc2c(c1)OCO2)c1ccc2c(c1)OCO2	-28%	5	-0.4%	2%	-8%	-23	-2.2
O[C@@H]1CN(C2CCCCC2)CC[C@H]1N1CCN(CCc2ccccc2)CC1	15%	19	/	-4%	5%	2	-1.4
Cc1ccccc1NS(=O)(=O)c1cccc(C(=O)Nc2cccc(C(=O)O)c2)c1	-7%	-20	-0.1%	5%	15%	?	0.9

# Filtered by structure: the compounds so far containing fluorine.
Compound	gsp agonist	TRPML1 blocker	ClpP mod	gsp antagonist	Sfp PPTase inh	TRPV1 potentiator	Menin-MLL FL inh
COc1ccccc1NC(=O)C(C)OC(=O)CCSc1ccc(F)cc1 (stereo not given)	13%	42	-1.8%	4%	/	1	/
CCOc1cc(C2NN=C(c3ccccc3)S2)ccc1OCc1ccc(F)cc1 (stereo not given)	17%	-5	14µM*	-3%	?	-42	3.8

# New compounds follow
Compound	gsp agonist	TRPML1 blocker	ClpP mod	gsp antagonist	Sfp PPTase inh	TRPV1 potentiator	Menin-MLL FL inh
Cc1ccc(C)c(S(=O)(=O)N2CCN(C(=O)CCNS(=O)(=O)c3ccccc3)CC2)c1	-67%[inhibitor]	-13	1.0%	-11%	12%	-5	-4.3
CCOC(=O)c1c(NC(=O)COC(=O)c2ccc(O)cc2)sc(C(=O)N(C)C)c1C	-1%	0	1.0%	?	12%	0	1.5
Cc1cccc(NC(=O)N2C3CCCC2CC(NC(=O)C(C)(C)C)C3)c1 (stereo not given)	28%	0	-0.4%	10%	-5%	14	-1.1
COc1ccc(CN2CCC(Oc3ccc(C(=O)NCc4ccccn4)cc3)CC2)c(F)c1	?	-4	-2.4%	2%	14%	-7	-2.2
Cn1cnnc1SCC(=O)c1ccc(O)c(O)c1	-17%	6	/	5%	?	-7	-2.4
COc1ccccc1-n1cnnc1SCC(=O)NC1CCCCC1	-16%	4	-0.3%	-8%	/	-6	/
Cc1cc2c(c(SCC#N)n1)C(=O)OC2	10%	7	/	?	-8%	-11	-2.1
Nc1cc(S(=O)(=O)N2CCCCC2)ccc1N1CCOCC1	17%	29	/	12%	17%	-6	0.2
CC(Cc1cccs1)NC(=O)Nc1ccc(F)cc1 (stereo not given)	-5%[15.4 µM]	-12	-2.1%	1%	15%	1	-0.1
CC12CCC(=O)N1C(C(=O)NNC(=O)c1ccc(F)cc1)CS2 (stereo not given)	?	2	-2.5%	5%	/	6	/
CCOP(=O)(OCC)C(NC(=O)Nc1ccc(Cl)cc1)C(=O)N(CC)CC (stereo not given)	19%	-28	-0.9%	-27%	13%	10	-0.4
CCn1c(SCC(=O)NC2CC2)nnc1-c1ccncc1	23%	2	-0.7%	4%	12%	2	3.1
Cc1c(C(=O)OCC(=O)NCC2CCCO2)oc2ccccc12 (stereo not given)	6%[15.4 µM]	-4	1.4%	-1%	/	/	/
O=C(Nc1ccc(NC(=O)c2ccccc2F)cc1)c1ccccc1F	2%[15.4 µM]	-2	0.6%	8%	6%	0	3.3
Cc1ccc(C)c(CN2C(=O)CSc3ccc(C(=O)NCCN4CCOCC4)cc32)c1	-1%[15.4 µM]	-4	/	4%	7%	1	-3.8
O=C(NNC(=O)C1CCN(c2ncccn2)CC1)c1ccc(F)cc1	0%	1	/	7%	12%	0	1.9
O=C(O)COc1ccc(/C=N/NC(=O)c2ccc(-c3csc(Nc4ccc(Cl)cc4)n3)cc2)cc1	-1%[15.4 µM]	2	/	-14%	45µM*	1	2.2
Cc1ccccc1C(=O)NCC(=O)NNC(=O)c1cccc(Cl)c1	4%	-1	0.5%	6%	/	-2	/
CC(=O)c1ccc(OCC(=O)c2ccc(-c3ccccc3)cc2)cc1	-7%	9	0.9%	8%	-4%	-7	5.9
CCc1noc(C)c1C(=O)OC(C)C(=O)Nc1cc([N+](=O)[O-])ccc1OC (stereo not given)	9%[15.4 µM]	-3	/	-19%	/	1	/
CC(C)=NNc1nc2c(c(=O)n(C)c(=O)n2C)n1C	19%	21	1.0%	-12%	22µM*	-7	4.0
COC(=O)c1cc(OC)c(OC)c(OC)c1[N+](=O)[O-]	21%	0	/	-4%	14%	-8	-1.9
COc1ccc2noc3c2c1C(=O)c1ccccc1-3	25%	1	0.7%	-21%	/	/	/
O=C(CSc1ccc(Cl)cc1)N1CCCC1	-6%	-24	2.0%	-16%	-10%	-25	0.8
CC(=O)Nc1cccc(C(=O)N2CCN(S(=O)(=O)c3ccc4ccccc4c3)CC2)c1	2%	-16	0.0%	2%	8%	15	1.0

# New compounds follow.
Compound	gsp agonist	TRPML1 blocker	ClpP mod	gsp antagonist	Sfp PPTase inh	TRPV1 potentiator	Menin-MLL FL inh
CCN(C[C@H]1N[C@@](CC)(C(=O)OC)[C@H]2C(=O)N(C)C(=O)[C@@H]12)S(=O)(=O)c1ccccc1	/	1	0.1%	9%	/	/	/
Cc1c(NC(=O)c2cccc(NC(=O)Cc3ccc(F)cc3)c2)c(=O)n(-c2ccccc2)n1C	-1%	5	-17%	12%	/	0	/
COc1cc2sc(-c3ccc(S(C)(=O)=O)cc3)c(C#CCO)c2cc1OC	-25%	32	4.8%	7%	/	/	/
Cc1ccc(C(C[N+](=O)[O-])Sc2ccc(N)cc2)cc1 (stereo not given)	-1%[15.4 µM]	21	/	1%	5.6µM*	3	-5.9
COc1ccc(CNC(=O)C(OC(=O)c2cccs2)C(C)C)cc1 (stereo not given)	5%[15.4 µM]	-3	-0.4%	-8%	-5%	0	-1.8
CCOc1ccc(NCc2ccccc2OCc2cccc(F)c2)cc1	?	10	-18%	-8%	-20%	1	0.8
COc1ccc(C(CNC(=O)COc2ccc([N+](=O)[O-])cc2)N2CCCCC2)cc1 (stereo not given)	13%	8	0.6%	-16%	8%	0	-0.9
CCOC(=O)c1c(C)nc2sc(C(N)=O)c(N)c2c1-c1ccccc1	-12%	-1	-10%	12%	10%	-17	1.0
CC(=O)Nc1ccc(S(=O)(=O)NC(CC(=O)N(C)Cc2ccccc2)C(C)C)cc1 (stereo not given)	-10%	-2	14µM*	3%	13%	3	4.4
COc1cccc(-n2c(SC3CCOC3=O)nc3ccccc3c2=O)c1 (stereo not given)	33%	-30	-4.1%	12%	12%	-7	1.0
CCOC(=O)c1c(NC(=O)COC(=O)Cn2c(C(F)(F)F)nc3ccccc32)sc(C)c1C	22%	-6	231%	-4%	8%	5	1.6

# Random draw from the library. Share with any hit: about 4.9%.
